PrP UTR inh: inhibition of PrP 5' UTR reporter expression. cell-based PrP 5' UTR mRNA reporter, plate reader. inhibition, % (concentration not given with the values). 0.35% of 340,000 active. AID 488862;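 active = every replicate at 50% or more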;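 also: 0 = median of the neutral control wells; tested in H4 reporter cells; numbers are from one replicate; inactives centre near -14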
BJeLR viability: kills HRASV12-expressing BJeLR cells. 0.17% of 300,000 active. BJeLR (HRASV12) viability, CellTiter-Glo ATP luminescence, 48 h; reference of the scale not given here. inhibition, % (test concentration not listed);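 active = replicate mean above 50%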;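 also: 50 nL library stock added to about 25 µL; numbers are from one replicate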
RN4220 kill: S. aureus RN4220 growth inhibition | OD600, 16 h | inhibition, % (no concentration beside the values) | 0.33% of 330,000 active | AID 1259311;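 active = z-score of -3 or lower and OD600 up to 0.18 on both plates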;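 also: plate controls were untreated cells for no effect and reference antibiotic for full effect; stock transfer was 100 nL into about 80 µL; one replicate is shown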
Sa ugtP lethal: kills S. aureus RN4220 lacking UgtP; AID 1259309; S. aureus RN4220 ugtP deletion, OD600 growth, 16 h; some inactives read as strong as hits; 0.54% of 330,000 active; growth inhibition, % (concentration not given with the values);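 active = z-score under -3 and OD600 up to 0.15 on both plates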;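 also: plate controls were untreated wells for no effect and antibiotic for full effect; wells of about 80 µL received 100 nL stock; the first replicate is given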
Bead autofluor: counter-screen for toxin protease inhibitors: compound fluorescence; compound autofluorescence counterscreen, microsphere flow cytometry; active compounds read high; fluorescence intensity (concentration not given with the values); 3.1% of 360,000 active; AID 624483;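 active = at least 3 SD above the mean of all compounds, about 16000 in these data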;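 also: 100 nL of 1 mM stock went into each well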
Mtb hypoxia inh: Mtb hypoxia fluorescent reporter inhibition; M. tuberculosis hypoxia-regulated fluorescent reporter, fluorescence; fluorescence inhibition, % (concentration not given with the values); 0.1% of 300,000 active; AID 1159583;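 active = 35 to 45% if threefold the growth effect, above 45% if 1.5-fold the growth effect; inactive = the rest, general growth blockers included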;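 also: wells of about 50 µL received 100 nL stock; 0% = vehicle wells and 100% = reference inhibitor wells; whole bacteria with a GFP reporter of the hypoxia response; strong numbers were not always called active; many hits fall short of the cut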
Mtb hypoxia inh growth: recorded beside Mtb hypoxia inh, whose call it bears; growth inhibition, %; measured here: M. tuberculosis growth (absorbance);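 0% = vehicle and 100% = reference antibiotic; read after six days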
* marks the source's active call; other numbers are inactive results; x = no result given.

no.	structure	PrP UTR inh	BJeLR viability	RN4220 kill	Sa ugtP lethal
1	CCCCCCc1c(O)nc(SCC(=O)O)[nH]c1=O	-20.6	-3.3	4.3	5.0
2	COc1ccc(C2=NN(c3ccccc3)C(c3ccc(OC)c(OC)c3)C2)cc1 (stereo not given)	-47.9	1.5	-5.8	6.1
3	O=C(O)[C@@H]1CCCN1C(=O)c1ccccc1N1C(=O)[C@@H]2Cc3c([nH]c4ccccc34)C(c3cccc(Cl)c3)N2C1=O (stereo not given in full)	-10.2	-10.2	4.1	5.2
4	COc1ccc(CN2CCN(Cc3ccc4cc(F)ccc4n3)CC2CCO)c(C)c1C (stereo not given)	-1.8	-21.1	-2.1	-5.1
5	Cc1ccc(C(=O)N2CCN(c3ccccc3)CC2)cc1S(=O)(=O)N1CCOCC1	-22.2	-2.6	x	x
6	Cc1ccc(N=N/C(=C\O)C(=O)c2ccncc2)cc1	-16.5	-7.6	4.8	3.1
7	CCNc1nc(OC)nc(SCC(N)=O)n1	-18.7	-0.9	-1.7	1.7
8	O=C1N/C(=N/N=Cc2ccccc2O)SC1Cc1ccc(F)cc1 (stereo not given)	x	x	-8.0	-7.2
9	CS(=O)(=O)c1ccc(Cl)c(NC(=O)CCCSc2ccccc2)c1	-34.1	-9.6	0.9	5.1
10	CCCc1cc2c(=O)c(-c3ccccn3)c(C)oc2cc1O	-32.6	-5.7	3.8	-0.7
11	CCOC(=O)c1cnc2scnn2c1=O	-14.5	12.2	3.0	0.7
12	Cc1cc(C)c(/C=N/NC(=O)c2nnn(-c3nonc3N)c2CN2CCC(C)CC2)c(C)c1	-36.6	10.5	x	x
13	Cn1c(=O)c2nc(-c3ccccc3)oc2c2ccccc21	-7.7	2.2	5.3	-17.8
14	CCOC(=O)N1CCN(C(=O)CNCc2cccs2)CC1	-6.6	-6.8	-0.1	1.6
15	CCOC(=O)Cc1cc(=O)n(-c2nc3ccccc3s2)[nH]1	-9.3	-6.7	33.2	8.2

no.	Bead autofluor	Mtb hypoxia inh	Mtb hypoxia inh growth
1	5942	9.1	4.7
2	4055	-0.9	2.0
3	6431	x	x
4	4390	-6.2	15.4
5	5156	x	x
6	2401	x	x
7	4734	x	x
8	x	10.6	4.5
9	3722	-11.5	1.1
10	10984	10.8	10.2
11	10118	9.5	3.8
12	5112	x	x
13	3150	15.2	-1.2
14	2954	x	x
15	3143	2.2	9.7

New compounds follow.
no.	structure	PrP UTR inh	BJeLR viability	RN4220 kill	Sa ugtP lethal
16	O=c1cc(N2CCN(c3ccc(F)cc3)CC2)[nH]c(=O)n1C1CCCCC1	-14.4	12.7	-1.9	-10.8
17	OC1(c2ccc(Cl)cc2)CCN(Cc2cn[nH]c2-c2ccccc2)CC1	-14.4	-7.0	0.0	-1.9
18	COC(=O)c1cc(Br)c(=O)n(CCc2ccc(O)cc2)c1	9.4	-9.5	14.3	0.8
19	C=CCn1c(-c2ccco2)n[nH]c1=S	-9.9	13.5	-2.6	-3.6
20	COc1ccc(N2CCN(CCNC(=O)c3ccc4nc5ccccc5c(=O)n4c3)CC2)cc1	-17.1	20.2	-3.2	1.1
21	CCN(CC(=O)Nc1c(F)cccc1F)C(=O)CN1C(=O)C2CCCCC2C1=O (stereo not given)	-21.3	x	4.9	6.8
22	c1ccc(CN2c3ccccc3-c3nc4ccccc4n3C2c2ccccn2)cc1 (stereo not given)	-20.6	4.9	-3.8	0.7
23	Cc1ccc2c(c1)N(C(=O)CCC(=O)N1CCN(c3ccccc3)CC1)CCO2	-0.9	-0.5	2.5	-3.9
24	CNC(=S)NN=Cc1c(C(=O)OC)cnn1-c1ccc(F)cc1F	x	x	1.8	2.8
25	CC(=O)Nc1ccc(NC(=O)C2CCN(c3ccc(C(F)(F)F)cn3)CC2)cc1	-9.9	10.9	5.4	-3.9
26	Cc1ccc(CN2CCCC(C(=O)c3ccc4c(c3)OCO4)C2)cc1C (stereo not given)	-16.0	-6.8	0.7	3.6
27	COc1cc(C=Nc2oc(-c3ccccc3)cc2C#N)ccc1O	x	x	12.3	-10.0
28	O=C(Nn1cnnc1)c1ccccc1CCc1ccccc1	6.0	9.6	8.8	7.9
29	CCc1ccc(OCC(=O)N/N=C\c2ccco2)c([N+](=O)[O-])c1	-11.5	8.5	x	x
30	CSCCC(NC(=O)c1cc(S(=O)(=O)N2CCOCC2)ccc1C)c1nc2ccccc2[nH]1 (stereo not given)	-5.6	x	-0.3	11.1

no.	Bead autofluor	Mtb hypoxia inh	Mtb hypoxia inh growth
16	3192	-23.8	1.4
17	x	2.9	4.0
18	3243	-3.5	1.9
19	3333	0.0	0.5
20	3500	-20.8	6.6
21	3577	15.3	5.8
22	7361	6.1	13.0
23	5589	-3.1	-3.9
24	x	-7.5	-6.9
25	4889	2.5	-4.3
26	4502	7.8	2.9
27	x	-4.3	-4.1
28	2405	8.0	6.3
29	1994	x	x
30	3496	12.5	11.8

Continuation.
no.	structure	PrP UTR inh	BJeLR viability	RN4220 kill	Sa ugtP lethal
31	CC(=O)Nc1ccc(C(C)=NNc2nc(N3CCOCC3)nc(N3CCOCC3)n2)cc1	x	x	-5.5	-4.0
32	Fc1ccc(C(c2nnnn2Cc2cccs2)N2CCN(c3ccccc3)CC2)cc1 (stereo not given)	-5.9	1.0	1.4	7.1
33	COCCCn1c(=O)c2sccc2n(Cc2cccc(C)c2)c1=O	-22.6	-2.1	0.9	8.9
34	CC(C)CNS(=O)(=O)c1ccc2c(c1)OCCO2	-17.1	1.9	1.9	0.5
35	CCCOc1nc2c(c(=O)n(C)c(=O)n2C)n1CCC	-22.9	-0.8	7.6	1.3
36	COc1cccc(CNS(=O)(=O)c2ccc3c(c2)oc(=O)n3C)c1	1.5	-2.6	6.6	9.9

no.	Bead autofluor	Mtb hypoxia inh	Mtb hypoxia inh growth
31	x	-1.3	-6.4
32	4079	9.2	-0.2
33	4169	18.3	5.0
34	24162*	3.9	12.3
35	11178	15.6	8.3
36	4192	8.9	5.4

Sorted by SMILES length (high to low): some entries from above
no.	structure	PrP UTR inh	BJeLR viability	RN4220 kill	Sa ugtP lethal
30	CSCCC(NC(=O)c1cc(S(=O)(=O)N2CCOCC2)ccc1C)c1nc2ccccc2[nH]1 (stereo not given)	-5.6	x	-0.3	11.1
31	CC(=O)Nc1ccc(C(C)=NNc2nc(N3CCOCC3)nc(N3CCOCC3)n2)cc1	x	x	-5.5	-4.0
21	CCN(CC(=O)Nc1c(F)cccc1F)C(=O)CN1C(=O)C2CCCCC2C1=O (stereo not given)	-21.3	x	4.9	6.8
32	Fc1ccc(C(c2nnnn2Cc2cccs2)N2CCN(c3ccccc3)CC2)cc1 (stereo not given)	-5.9	1.0	1.4	7.1
29	CCc1ccc(OCC(=O)N/N=C\c2ccco2)c([N+](=O)[O-])c1	-11.5	8.5	x	x
22	c1ccc(CN2c3ccccc3-c3nc4ccccc4n3C2c2ccccn2)cc1 (stereo not given)	-20.6	4.9	-3.8	0.7
26	Cc1ccc(CN2CCCC(C(=O)c3ccc4c(c3)OCO4)C2)cc1C (stereo not given)	-16.0	-6.8	0.7	3.6
24	CNC(=S)NN=Cc1c(C(=O)OC)cnn1-c1ccc(F)cc1F	x	x	1.8	2.8
33	COCCCn1c(=O)c2sccc2n(Cc2cccc(C)c2)c1=O	-22.6	-2.1	0.9	8.9
27	COc1cc(C=Nc2oc(-c3ccccc3)cc2C#N)ccc1O	x	x	12.3	-10.0
35	CCCOc1nc2c(c(=O)n(C)c(=O)n2C)n1CCC	-22.9	-0.8	7.6	1.3
34	CC(C)CNS(=O)(=O)c1ccc2c(c1)OCCO2	-17.1	1.9	1.9	0.5
28	O=C(Nn1cnnc1)c1ccccc1CCc1ccccc1	6.0	9.6	8.8	7.9

no.	Bead autofluor	Mtb hypoxia inh	Mtb hypoxia inh growth
30	3496	12.5	11.8
31	x	-1.3	-6.4
21	3577	15.3	5.8
32	4079	9.2	-0.2
29	1994	x	x
22	7361	6.1	13.0
26	4502	7.8	2.9
24	x	-7.5	-6.9
33	4169	18.3	5.0
27	x	-4.3	-4.1
35	11178	15.6	8.3
34	24162*	3.9	12.3
28	2405	8.0	6.3

Compound activity: PubChem, several laboratories
